Beta cell apopt: inhibitors of cytokine-induced beta cell apoptosis, primary screen, luminescence; protection from apoptosis, % (no concentration beside the values); INS-1E cytokine-induced death, ATP luminescence, 48 h; percent of positive-control rescue, neutral wells zero; 300,000 tested, 0.8% active; AID 435005, 2010;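 active means all replicates at 75% or more, or half of them and the mean; inconclusive means half reach 75% but not the mean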;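 further: 0% = cytokine-treated negative control wells and 100% = positive control rescue; higher means more ATP so stronger rescue from cytokine killing; wells of about 40 µL received 100 nL stock; the first replicate is given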
A1 inh: caspase 3/7 activation in MEF A1-2A-BIM cells, primary screen, A1 inhibitor project, cell-based, luminescence, HTS. Caspase-Glo 3/7 luminescence, 3 h; percent of clofoctol response, vehicle zero. caspase activation, % (no concentration beside the values). 330,000 tested, 0.066% active. AID 2462, 2010;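 active means over half of replicate activation scores above 10%, or exactly half above 10 with the replicate mean above 10; inconclusive means replicate mean below 10 yet half the replicates above 10; inactive means over half of replicates below 10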;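 further: wells of about 30 µL received 50 nL stock; many hits fall short of the cut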
T cruzi repl: inhibitors of intracellular T. cruzi growth, primary screen, luminescence, NIH3T3 host cells. T. cruzi beta-gal in NIH3T3, 90 h. 300,000 tested, 1.4% active. AID 1885, 2009. inhibition, % (no concentration beside the values);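 active means mean inhibition across valid replicates above about 55%, limit read from the data; inconclusive means mean below that limit but half or more replicates reach it; inactive means mean below it, under half of replicates reach it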;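 further: signal also drops with host cell toxicity which is not excluded here; 0% = plate median of DMSO wells and 100% = zero luminescence signal; higher percent means less beta-gal luminescence so fewer parasites; stock transfer was 50 nL into about 50 µL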
Numbers without * were called inactive; u = inconclusive.

Sample of the layout (4 entries):
SMILES	Beta cell apopt	A1 inh	T cruzi repl
CCN(CC)c1ccc(N=Cc2ccc(N(CC)CC)cc2O)cc1	63	-0.5	74*
C(=N\n1cnnc1)/c1cccc2ccccc12	1	0.4	-9
COc1cccc(/C=N/Nc2ncnc3scc(-c4ccccc4)c23)c1O	103*	-1.3	52
C=CCN1C(=O)/C(=C\c2ccc(C)cc2)N=C1SCC(=O)NCCC	-4	0.1	-25

The list itself, from the first entry:
SMILES	Beta cell apopt	A1 inh	T cruzi repl
CCN(CC)c1ccc(N=Cc2ccc(N(CC)CC)cc2O)cc1	63	-0.5	74*
C(=N\n1cnnc1)/c1cccc2ccccc12	1	0.4	-9
COc1cccc(/C=N/Nc2ncnc3scc(-c4ccccc4)c23)c1O	103*	-1.3	52
C=CCN1C(=O)/C(=C\c2ccc(C)cc2)N=C1SCC(=O)NCCC	-4	0.1	-25
CC(=O)c1c(O)cc2n(c1=O)-c1ccc(Cl)cc1C2(C)C	-8	-0.5	-4
Cc1cc(-c2ccc(/C=N/n3cnnc3)o2)c([N+](=O)[O-])cc1C	-1	0.3	-3
CN1/C(=c2/s/c(=C3/C(=O)N(c4ccccc4)NC3=Nc3ccccc3)n(C)c2=O)C(C)(C)c2ccccc21	22	0.0	35
COc1cccc(/C=N/n2c(N)c(S(=O)(=O)c3cccs3)c3nc4ccccc4nc32)c1	5	0.3	28
Cc1ccccc1Nc1nc(-c2sc(NC(=O)c3ccc([N+](=O)[O-])cc3)nc2C)cs1	3	-0.9	-7
CC1CCC2C(C1)OS(=O)(=O)NC2(C)C (centres undefined)	-6	1.0	-9
COc1ccc(O)c(/C=N/NC(=S)Nc2cccc(S(=O)(=O)N(C)C)c2)c1	65	0.3	9
C=CCN1C(=O)C(Cc2ccc(Br)cc2)S/C1=N\N=C\c1ccco1 (centres undefined)	-6	0.1	-11
COc1cc(C(=O)N/N=C/c2ccsc2C)cc(OC)c1OC	20	0.5	28
O=C(Nc1ccc(Cl)cc1)c1ccc(-n2cncn2)c([N+](=O)[O-])c1	13	-1.9	-7
O=C(N/N=C/C1CC=CCC1)c1ccc(O)cc1O (centres undefined)	-10	-0.8	7
CN1CCc2nc(SCC(=O)Nc3ccc(F)cc3)c(C#N)cc2C1	-18	1.1	16
COc1cccc(/C=N/NC(=O)CSc2nnc(C)n2-c2ccccc2)c1OC	-6	0.1	-3
C#CCOCCOCCOCCNc1nc(N2CCN(C(=O)C(Cc3ccc(O)cc3)n3cc(C(N)CC(C)C)nn3)CC2)nc(N2CCN(C(=O)C(Cc3cc4ccccc4[nH]3)n3cc(C(N)C(C)CC)nn3)CC2)n1 (centres undefined)	5	0.4	-7
CCCCC1=CC2=CC(=O)C(C)(OC(=O)CCC(=O)OC)C(=O)C2=CO1 (centres undefined)	3	0.5	-6
CCSc1ncc(/C=N/Nc2ccccc2)n1C	-9	0.0	40
O=C(c1ccc2[nH]c3c(c2c1)CCCC3)N1CCN(c2ccc(F)cc2)CC1	-12	0.6	10
O=S(=O)(N/N=C/c1c(F)cccc1Cl)c1ccccc1	-4	1.1	-13
COc1ccc(-n2c(C)nc3sc4c(c3c2=O)CCCC4)cc1	2	0.9	-4
COc1ccccc1NC(=O)COc1ccc(/C=N/NC(=O)CSCc2ccc(Cl)cc2)cc1	-3	-0.9	-14
COC1C/C(=N\O)C2OC(c3ccccc3)OCC2O1 (centres undefined)	2	0.1	-1
CC(C)NC(=O)CC(=O)N/N=C/c1ccccc1F	-6	0.5	-4
CCCCCCCCCCS(=O)(=O)N/N=C/c1ccc(O)cc1	-4	-1.3	-13
CCCNC(=O)Cn1c(=O)/c(=C\c2ccc(-c3cccc([N+](=O)[O-])c3)o2)s/c1=C\C(=O)C(C)(C)C	20	-0.8	34
Cc1cc(C)n2nc(SCC(=O)N/N=C/c3ccccn3)nc2n1	-7	0.8	-16
CCNC(=S)N/N=C(\C)c1ccc2ccccc2c1	7	0.3	-8
Clc1cnc(N/N=C/c2cccs2)c(Cl)c1	-1	-3.1	-6
Cc1ccc(/C=c2\sc3n(c2=O)CN(c2ccc(Br)cc2)CN=3)o1	-1	0.2	-5
C[C@H]1[C@H](C)CC[C@]2(C(=O)O)CC[C@]3(C)C(=CC[C@@H]4[C@@]5(C)C[C@@H](O)[C@H](O)C(C)(C)[C@@H]5CC[C@]43C)[C@H]12	2	0.3	17
CC1(O)C(=O)C=C2C=C(c3ccc(C#N)cc3)OC=C2C1=O (centres undefined)	-1	-1.2	-14
N#CC1(c2ccc(NC(=O)c3ccccc3)cc2)CCCC1	11	-9.0	6
CCC(=O)N/N=C/c1ccc(OS(=O)(=O)c2ccccc2)cc1	-1	0.3	-2
CC1=C(C(=O)Nc2ccccc2C)C(c2ccc(C)o2)n2c(s/c(=C/c3ccccc3)c2=O)=N1 (centres undefined)	2	-0.9	37
Cc1nc(N/N=C/c2ccccc2)nc(N(C)c2ccccc2)c1[N+](=O)[O-]	2	-0.1	18
Cc1nnn(C23CC4CC(CC(CC(=O)Nc5ccc(C)c(Cl)c5)(C4)C2)C3)n1	14	0.3	50
O=C1CCC/C(=N/NC(=O)c2ccc(CN3c4cccc5cccc(c45)S3(=O)=O)cc2)C1	1	0.6	4

A section from further up, for reference:
SMILES	Beta cell apopt	A1 inh	T cruzi repl
O=C(c1ccc2[nH]c3c(c2c1)CCCC3)N1CCN(c2ccc(F)cc2)CC1	-12	0.6	10
O=S(=O)(N/N=C/c1c(F)cccc1Cl)c1ccccc1	-4	1.1	-13
COc1ccc(-n2c(C)nc3sc4c(c3c2=O)CCCC4)cc1	2	0.9	-4
COc1ccccc1NC(=O)COc1ccc(/C=N/NC(=O)CSCc2ccc(Cl)cc2)cc1	-3	-0.9	-14
COC1C/C(=N\O)C2OC(c3ccccc3)OCC2O1 (centres undefined)	2	0.1	-1
CC(C)NC(=O)CC(=O)N/N=C/c1ccccc1F	-6	0.5	-4
CCCCCCCCCCS(=O)(=O)N/N=C/c1ccc(O)cc1	-4	-1.3	-13

The listing continues.
SMILES	Beta cell apopt	A1 inh	T cruzi repl
O=C(CSc1ncnc2nc[nH]c12)Nc1ccccc1C(F)(F)F	6	0.8	-27
CC(C)C1S/C(=N/N=C/c2cccs2)NC1=O (centres undefined)	0	0.1	-12
O=C1C2C3C=CC(C4CC34)C2C(=O)N1/N=C/c1ccc(-c2ccc(F)cc2[N+](=O)[O-])o1 (centres undefined)	2	0.3	4
CN(/N=C/c1ccncc1)c1cnn(-c2ccc(F)c(Cl)c2)c(=O)c1Cl	-2	0.2	7
O=C(N/N=C/c1cccc([N+](=O)[O-])c1)c1cccs1	1	-3.7	0
CC(/C=C/c1ccco1)=N/NC(=O)c1ccccc1Cl	0	0.0	-25
N#Cc1ccc(N/N=C/c2cn(-c3ccccc3)nc2-c2ccccc2)c([N+](=O)[O-])c1	87*	1.1	1
CC(C)c1ccccc1NC(=O)COc1ccc2c(=O)c(Oc3ccc4ccccc4c3)coc2c1	8	0.0	-2
Cc1ccc(-c2n[nH]c(=S)n2/N=C/C=C/c2ccccc2[N+](=O)[O-])cc1	-3	0.2	2
CCOC(=O)C(C)/C(C)=N/NC(N)=S (centres undefined)	10	0.2	-11
Cc1ccc(C(C)C)c(OCc2ccc(C(=O)N/N=C/c3ccc(O)c(O)c3)cc2)c1	-3	-0.1	-1
Cc1cc(/C=N/NC(=O)COc2cccc3cccnc23)c(C)n1-c1ccc(O)cc1	1	0.5	-1
CCOc1ccc(S(=O)(=O)N(CC(=O)N/N=C/c2cccs2)c2ccc(C)cc2)cc1	7	-0.3	-5
CC(=O)C1=C(C)NC(SCC(=O)Nc2nccs2)=C(C#N)C1c1ccccc1Cl (centres undefined)	7	0.6	49
CCCCOC(=O)c1cc(-c2ccc(/C=N/n3cnnc3)o2)ccc1Cl	0	-0.4	u
O=c1cc(CN2CCN(S(=O)(=O)/C=C/c3ccccc3)CC2)c2ccc(O)cc2o1	5	-0.5	20
C/C(=N\NC(=O)CSCc1cccc(Br)c1)c1ccc([N+](=O)[O-])cc1	-5	1.2	-6
O/N=C1\CCCc2oc3c(c21)CCCC3	2	0.5	9
CCn1nnc(-c2ccccc2NC(=O)c2cnccn2)n1	1	0.8	1
CC(/C=N/n1cnnc1)=C\c1ccccc1	0	0.2	-1
Cc1cc(/C=N/n2cnnc2)c(C)n1-c1ccccc1	3	1.8	22
Cc1ccc(-c2csc(N/N=C/C=C/c3ccccc3)n2)cc1	6	-1.8	7
Cc1cccc(/C=N/NC(=O)c2ccc(Br)cc2)c1	5	-5.9	-19
COc1ccc(OC)c(C2C3=C(N=c4s/c(=C\c5cccc(O)c5)c(=O)n42)c2ccccc2CC3)c1 (centres undefined)	-3	0.3	6
Clc1cnc(N/N=C/c2ccco2)c(Cl)c1	-3	-5.1	1
O=C(N/N=C/c1cccnc1)/C(=C\c1cccs1)NC(=O)c1ccccc1	2	-1.3	-7
COc1cc(/C=N/OCC(=O)Nc2ccc(OC(F)F)cc2)ccc1OCc1ccccc1	4	0.9	-2
Cc1ccc(-c2ccc(/C=C(\C#N)C(=O)Nc3cc(C)nn3-c3ccccc3)o2)cc1	18	33*	16
CCOc1cc(/C=N/Nc2nc(-c3cccc(S(=O)(=O)N4CCCC4)c3)cs2)ccc1O	14	-0.4	10
C/C(=N/NC(=O)CN1CCN(S(=O)(=O)c2ccc(Br)cc2)CC1)c1ccco1	2	0.3	5
CCC(Nc1ccc(OC)cc1)C(=O)N/N=C/c1ccc([N+](=O)[O-])cc1 (centres undefined)	2	0.0	23
NNC(=O)/C(=N/Nc1ccccc1)S(=O)(=O)c1ccc(Cl)cc1	53	-0.2	1
Cc1ccc(C(=O)O/N=C/c2c(Cl)n(C)c3ccccc23)cc1	-2	-0.3	-5
O=C(CNC1CCCCCC1)Nc1ccc(N2CCCC2)cc1	-1	0.4	-8
Brc1cccc(/C=N/Nc2nc(N3CCCCC3)nc(N3CCCCC3)n2)c1	-3	1.4	-4
N#CCOc1ccc2oc(-c3ccco3)cc(=O)c2c1	3	-0.6	-6
CCCCCCC(=O)N/N=C/Cc1ccccc1	3	-0.3	8
C=C(C)Cn1c(SCC(=O)N/N=C/c2c(O)ccc3ccccc23)nc2ccccc2c1=O	47	0.0	27
CC1=C(C(=O)OC2CCCCC2)C(c2cccnc2)n2nnnc2N1 (centres undefined)	1	-0.5	59*
CC(C)(C)c1cccc(/C=N/O)c1O	3	1.3	-9

Part of the list above in order of length of the SMILES, ascending:
SMILES	Beta cell apopt	A1 inh	T cruzi repl
O=C(CNC1CCCCCC1)Nc1ccc(N2CCCC2)cc1	-1	0.4	-8
Cc1ccc(-c2csc(N/N=C/C=C/c3ccccc3)n2)cc1	6	-1.8	7
CC1=C(C(=O)OC2CCCCC2)C(c2cccnc2)n2nnnc2N1 (centres undefined)	1	-0.5	59*
Cc1ccc(C(=O)O/N=C/c2c(Cl)n(C)c3ccccc23)cc1	-2	-0.3	-5
CCC(Nc1ccc(OC)cc1)C(=O)N/N=C/c1ccc([N+](=O)[O-])cc1 (centres undefined)	2	0.0	23

More compounds follow:
SMILES	Beta cell apopt	A1 inh	T cruzi repl
CCc1ccc(NC(=O)C(=O)N/N=C(\C)CC(=O)Nc2ccccn2)cc1	-2	0.6	-16
C/C(=N\NC(=O)c1ccc(Br)cc1)c1ccccc1	-3	-6.5	-21
C/C(=N\Nc1cc(Cl)nc(C)n1)c1ccc(Cl)c(Cl)c1	8	-1.0	33
CN1/C(=C/C(=O)c2nc(S(C)(=O)=O)ncc2Cl)C(C)(C)c2ccccc21	61	0.2	40
O=[N+]([O-])c1ccc(N/N=C\c2cccn2-c2ccccc2)nc1	-9	-0.4	21
CCc1n[nH]c(=S)n1/N=C/c1cc(OC)cc([N+](=O)[O-])c1O	0	0.6	68*

Screens (PubChem)

An excerpt; rates above refer to the full screens.
